HPGD inh = blocks human HPGD enzyme activity. AID 894. Potency, µM, for inactives: top-dose activity change, negative = inhibition, most hits filed as inhibitors. purified HPGD, NADH fluorescence kinetic, PGE2 substrate. 150,000 tested, 4.3% active. P15428; active = well fitted inhibition curve with a large enough effect (not every such curve was filed as active); inconclusive = small, poorly fitted or top-dose-only effect, or another doubt; inactive = no such curve, though single readings can be large or run the other way;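 also: top concentration of the series not given in the record; plate controls included wells without enzyme; inactives centre near -10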
Target sequence (P15428 whole entry, looked up): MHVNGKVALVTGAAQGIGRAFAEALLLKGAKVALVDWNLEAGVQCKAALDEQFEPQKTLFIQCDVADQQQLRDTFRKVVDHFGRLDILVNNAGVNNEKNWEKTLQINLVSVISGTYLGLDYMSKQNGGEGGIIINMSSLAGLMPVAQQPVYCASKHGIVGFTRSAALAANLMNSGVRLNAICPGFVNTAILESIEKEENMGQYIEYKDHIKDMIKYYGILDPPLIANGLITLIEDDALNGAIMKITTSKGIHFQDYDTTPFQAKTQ
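NADH formation kinetics: reaction with 30 uM PGE2 and 1 mM NAD+ (final), 20 nM enzyme, Tris-HCl pH 8 with Tween 20, after 15 min compound preincubation at room temperature. Fluorescence change, last versus first of five reads.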
An asterisk follows results filed as active; ? = inconclusive; & = joins results of further samples. % is scaled to controls: 0 for no effect and ±100 for the full control effect; potency is read from the fitted curve at half-maximal effect. Only part of the results is shown; rates above refer to the full screens.

SMILES	HPGD inh
O=C(NN1C(=O)/C(=C/c2cccs2)SC1=S)c1ccccc1	-3.7%
O=C(CCC(=O)c1cccs1)NC(c1ccccc1)c1ccccc1	-11.0%
N#Cc1cc2c(nc1SCc1ccc(Cl)cc1)CCCC2	-25.5%
O=C(NN1C(=O)C2C3C=CC(C4CC34)C2C1=O)c1ccc(Cl)cc1Cl (stereo unspecified)	-8.5%
c1ccc(-c2nnc(C(c3ccccc3)c3ccccc3)o2)cc1	-18.4%
CC(=O)Nc1ccc(SCC(=O)Nc2ccccc2-c2ccccc2)cc1	-4.0%
CCOCCC(=O)Nc1cc(Cl)ccc1OC	-19.3%
CC(C)COC(=O)C1[C@H]2C(=O)N(Cc3cccs3)C[C@]23C=C[C@H]1O3 (stereo partly specified)	-20.6%
Cc1ccc(CCNC(=O)Cn2cccc2)cc1	14.1µM*
COCCN1C(=O)N[C@@H](CCc2ccccc2)C(C(C)=O)=C1C	-6.6%&-16.3%
CCN1CCc2nc(NC(=O)CC(c3ccccc3)c3ccccc3)sc2C1	?
Cc1csc(NC(=O)C2COc3ccccc3O2)n1 (stereo unspecified)	-9.9%
CSc1ccccc1NC(=O)c1cnccn1	-20.3%
Cc1ccc(C(=O)NCCSc2c(C)[nH]c3ccccc23)cc1[N+](=O)[O-]	-29.0%
O=C(CSc1nnc(-c2ccncc2)n1Cc1ccco1)Nc1nccs1	-6.9%
Cn1cc(C=C2C(=O)Nc3cccnc32)c2ccccc21	-5.8%
Nn1c(Nc2ccccc2)nc2sc3c(c2c1=O)CCC3	-18.8%
CCn1ncc(Br)c1C(=O)Nc1cc(C(=O)OC)ccc1C(=O)OC	-25.8%
Cc1ccc(S(=O)(=O)O/N=C2/CCCc3occc32)cc1	1.0%
O=C(O)/C=C/c1cnc[nH]1	-6.9%&-8.1%
Cc1ccc(C(=O)c2sc3nsc(C)c3c2N)cc1	-27.4%
CN1CCN(c2ccc(S(=O)(=O)N3CCCCC3)cc2NC(=O)Cc2ccc(Cl)cc2)CC1	-2.0%
Brc1ccc(/C=N/Nc2ncnc3c2cnn3Cc2ccccc2)cc1	?
CN(C)CCSc1nnc(-c2ccccc2)o1	-8.0%
O=[N+]([O-])c1ccc2nc(-[n+]3c(-c4ccccc4)cc(-c4ccccc4)cc3-c3ccccc3)[nH]c2c1	-19.7%
Cn1nnnc1SCC1=C(C(=O)O)N2C(=O)C(NC(=O)C(OC=O)c3ccccc3)C2SC1 (stereo unspecified)	-6.5%
COc1ccc(OC)c(-n2c(SCC(N)=O)nnc2-c2c[nH]c3ccccc23)c1	-16.0%
CSc1nc(O)c(/C=C2\C=Nc3ccccc32)[nH]1	?
CCCCCCCCc1nc(=S)[nH][nH]1	15.8µM*
O=S(=O)(c1ccc2c(c1)OCCO2)N1CCN(Cc2ccc3c(c2)OCO3)CC1	-8.5%
CCNc1ccc(Br)cc(C(=O)/C=C/c2c(Cl)cccc2Cl)c1=O	8.91µM*
O=C(O)C1CCCCC1C(=O)NCCCN1CCOCC1 (stereo unspecified)	1.1%
COC(=O)CNc1nc(-c2ccccc2F)nc2ccccc12	-3.6%
COc1ccc(CC(=O)Nc2ccc(-c3noc(-c4ccccc4OC)n3)cc2)cc1	-14.6%
CCOC(=O)c1c(-c2ccccc2)csc1NC(=O)c1nn(CC)cc1Br	?
COC(=O)c1ccc(NC(=S)NC(=O)c2c(Cl)cnn2C)cc1	-47.7%
CCO/N=C(\C)c1c(O)c(CC)c(-c2ccccc2)n(-c2ccccc2)c1=O	1.6%
Cn1c(NC(=O)c2ccco2)c(-c2ccccc2)c(=O)c2ccccc21	-4.4%
CC(C)(C)C(=O)Nc1cccc(C(=O)c2cccc(NC(=O)C(C)(C)C)c2)c1	-10.8%
Cc1cc(C)cc(N2C(=O)CC(N3CCOCC3)C2=O)c1 (stereo unspecified)	-4.6%
CC(=O)Nc1ccc(S(=O)(=O)NNC(=O)c2cccc3ccccc23)cc1	-16.2%
O=C(Oc1ccc2cccc(OC(=O)N3CCOCC3)c2c1)N1CCOCC1	-7.7%
CCOC(=O)c1sc(NC(=O)c2ccco2)nc1C	-20.0%
COc1ccc(COCC(O)CN(Cc2ccco2)Cc2ccccc2O)cc1 (stereo unspecified)	-8.6%
CCOC(=O)c1c(NC(=O)CN2CCOCC2)sc2c1CCCC2	-15.4%
CCN(CC)CCCNC(=O)c1ccccc1C	-8.8%
C/C(=C\c1ccccc1)C1NC(=O)c2c(sc3c2CCCC3)N1 (stereo unspecified)	-3.6%
Cc1c(O)c(=O)ccn1Cc1ccccc1	-7.7%
COc1ccc(-c2ccccc2)cc1NCc1ccccc1C	?
CC1(C)NC(=O)N(CCOCCOc2ccccc2)C1=O	-8.0%
Further results
SMILES	HPGD inh
Cc1cccc(-n2nnnc2SCC(=O)c2cc(C)n(Cc3ccco3)c2C)c1	-7.5%
COc1ccc(C)cc1NC(=O)CN(Cc1nnc(-c2ccc(Cl)cc2)o1)C1CCCC1	-18.9%
CCc1nnc(NC(=O)OCc2ccccc2)s1	-5.3%
Cc1ccc(C)c(C2=CSC3=NCCN23)c1	-7.3%
Cc1nn(C)cc1CNC(=O)Nc1cccc(Cl)c1	-17.4%
Clc1ccc(-c2csc(N/N=C/c3cccnc3)n2)c(Cl)c1	-9.2%
Cc1ccc2oc3nc(C)c(C(=O)Nc4cccc(C(F)(F)F)c4)cc3c(=O)c2c1	-14.4%
COc1ccc(-c2nc3nc(C)cc(=O)n3[nH]2)cc1	-15.0%
CCCC(=NCc1ccccc1)C1=C(O)C(C(=O)OC)C(C)(C)CC1=O (stereo unspecified)	-11.9%
Cc1ccc([S+](=O)([O-])N(c2ccccc2)[S+](=O)([O-])C(F)(F)F)cc1	-3.5%
O=C(Nc1ccc(Cl)c(Cl)c1)Nc1nnc(CC2=CCCCC2)s1	-9.7%
CC1CCc2sc3nc(NCc4ccco4)n4ncnc4c3c2C1 (stereo unspecified)	?
O=c1oc2c3c4c(cc2c2c1CCC2)OCCN4CCC3	?
COc1ccc(CN2CCN(C(=O)C3CC(=O)N(C4CCCCCC4)C3)CC2)c(OC)c1OC (stereo unspecified)	-1.1%
CC(C)NC(=O)N1CCCC2(CCN(C(=O)c3cc(C(F)(F)F)cc(C(F)(F)F)c3)CC2)C1	-22.1%
COc1ccccc1-c1cc(SC)c(C#N)c(=O)o1	-20.2%
N#Cc1ccc(CSc2nnc(Nc3ccccc3)s2)cc1	-13.1%
COC(=O)Cn1c(C(F)(F)F)nc2ccccc21	-7.9%
CCCCC/C=C\C/C=C\C/C=C\CCCCCCC(=O)NCC(=O)O	-5.5%
CCN1CCN(C(=S)c2ccc(Cl)cc2)CC1	10µM*
CC1(C)CC(=O)N(CC(=O)N2CCN(c3ncccn3)CC2)c2ccccc2S1(=O)=O	-8.2%
O=C(O)CNC(=O)c1ccccc1O	?
CCOC(=O)N1CCC(NC(=O)c2cccc3c2C(=O)N(Cc2cccnc2)C3)CC1	5.6%
O=[N+]([O-])c1cccc(/C=N/Nc2nc(NCc3ccccc3)nc(N3CCOCC3)n2)c1	-0.4%
Cc1cccc(C)c1OCc1nnc(SCC(=O)NCc2ccccc2)o1	-6.4%
N#CCSc1nnc(COc2ccccc2)n1-c1ccccc1	-12.6%
Clc1cccc(Cl)c1Cn1nnc(-c2cccs2)n1	-2.6%
COC(=O)c1cc2c(=O)n3ccccc3nc2n(C)c1=N	?
CN(C)c1nc2n(c(=O)n1)CCS2	-12.9%
O=c1[nH]c(=O)n(Cc2ccccc2)c2c1C(C(F)(F)F)(C(F)(F)F)N=C(c1ccco1)N2	-25.2%
Cc1ccccc1OCc1nnc(SCC(=O)Nc2ccc(N3CCOCC3)c(Cl)c2)n1C	-14.7%
c1ccc(-n2c(SCc3ccncc3)nnc2-c2ccco2)cc1	-11.2%
O=C(NCCCn1ccnc1)C(Cc1ccccc1)N1C(=O)c2ccccc2C1=O (stereo unspecified)	?
COc1ccc2oc(=O)c(C(=O)N3CCCc4ccccc43)cc2c1	-8.9%
CCCN(CCC)C(=O)Cn1c(=O)c2ccccc2n2c(=S)sc(-c3ccccc3C)c12	-19.6%
CC(C)OC(=O)C1=C2SCC(=O)N2C(N)=C(C#N)C1	-26.5%
CC1=NN(c2ccccc2)C(=O)/C1=C/c1c(O)n(-c2ccc(F)c(Cl)c2)[nH]c1=O	-28.2%
COC(=O)C(CCCCN1C(=O)C2C3C=CC(C3)C2C1=O)N1C(=O)C2C3C=CC(C3)C2C1=O (stereo unspecified)	-13.8%
COC(=O)C1=C(C)Nc2nnnn2C1c1cccnc1 (stereo unspecified)	35.5µM*
O=C(NCCc1ccccc1F)C1CCCN1S(=O)(=O)c1ccc2ccccc2c1 (stereo unspecified)	15.8µM*
CCS(=O)(=O)N1CCN(c2ccc(C(=O)NC3C4CC5CC(C4)CC3C5)cc2[N+](=O)[O-])CC1 (stereo unspecified)	-1.2%
O=C(O)/C=C/C(=O)NC1CCCCC1	-18.9%
COc1cc(C/C=C\c2ccccc2)c(OC)cc1O	-20.5%
O=C(NCCCNCc1ccccc1)/C(=N\O)c1ccccc1	-1.1%
CC1=CC(=O)CC(C)(C)[C@]1(O)/C=C\C(C)=C\C(=O)O	-3.7%
CCCCNS(=O)(=O)c1ccc2nc(SCC(=O)Nc3cc(C)cc(C)c3)[nH]c2c1	-21.1%
CCOc1ccc(-c2cc3nc(C4CCN(C(=O)OC(C)(C)C)CC4)c(C(=O)O)cn3n2)cc1	?
O=C1NC(c2ccc(-c3ccccc3[N+](=O)[O-])o2)C(C(=O)c2ccc(Cl)cc2)C(O)(C(F)(F)F)N1 (stereo unspecified)	-3.5%
COC(=O)c1ccccc1OCC(=O)N1CCN(c2ccc(Cl)cc2)CC1	0.6%
Cc1c(Cl)cnc(NC(=O)COC(=O)c2ccc([N+](=O)[O-])s2)c1Cl	?
Other records
SMILES	HPGD inh
NS(=O)(=O)c1ccc(NC(=S)NCC2CCCO2)cc1 (stereo unspecified)	?
CCCOC(=O)c1ccc(NC(=O)COC)cc1	?
C[C@@H](C(=O)N[C@@H](CO)Cc1ccccc1)[C@@H]1C[C@@]1(C)[C@@H](NC(=O)OCc1ccccc1)c1ccccc1	-4.3%
CCCCNC(=O)COc1ccccc1[N+](=O)[O-]	-12.9%
CC(=O)c1cccc(NC(=S)NC(=O)c2ccccc2Br)c1	-28.4%
COC(=O)C(C)(C)ONC(=O)Nc1ccccc1Br	-8.0%
N#Cc1nc(Cc2cccc3ccccc23)oc1N1CCOCC1	-14.0%
CN(C(=O)c1ccc(-c2nn(C)c(=O)c3ccccc23)cc1)c1ccccc1	7.94µM*
O=C(NC(Cc1c[nH]c2ccccc12)c1nnc2n1CCCCC2)c1ccc(Cl)cc1 (stereo unspecified)	-13.4%
Cc1cnc(CNc2ncncc2-c2ccc(C(=O)N(C)C)cc2)cn1	-15.3%
CCOc1ccc(NC(=O)C(C)Oc2ccccc2C(=O)Nc2ccc(C)c(Cl)c2)cc1 (stereo unspecified)	-12.2%
CCOC(=O)c1[nH]c2ccccc2c1NC(=O)Nc1ccc(OC)cc1	?
Cc1cc(C(=O)CSc2nnc(-c3ccncc3)n2-c2ccccc2)c(C)n1C	-10.6%
O=C(CSc1nnc(-c2ccc(OC(F)F)cc2)o1)N1CCOCC1	-6.5%
CSc1ccc(C=O)cc1	-0.5%
Cn1c(N)c(C(=O)COC(=O)CSc2ccc3ccccc3c2)c(=O)n(C)c1=O	-10.1%
c1ccc(C(c2ccccc2)N2CC[C@@]3(CCCNC3)C2)cc1	-9.8%
COCc1cc(C)nc(Nc2ccccc2C)c1C#N	-21.3%
O=C(COc1ccccc1)NCC(=O)N/N=C/c1ccccc1	-1.9%
Cc1ccccc1-c1nc(CSc2nc3c(c(=O)[nH]2)CCC3)c(C)o1	4.47µM*

HPGD inh: entries above that show a hit.
SMILES	HPGD inh
Cc1ccc(CCNC(=O)Cn2cccc2)cc1	14.1µM*
CCCCCCCCc1nc(=S)[nH][nH]1	15.8µM*
CCNc1ccc(Br)cc(C(=O)/C=C/c2c(Cl)cccc2Cl)c1=O	8.91µM*
CCN1CCN(C(=S)c2ccc(Cl)cc2)CC1	10µM*
COC(=O)C1=C(C)Nc2nnnn2C1c1cccnc1 (stereo unspecified)	35.5µM*
O=C(NCCc1ccccc1F)C1CCCN1S(=O)(=O)c1ccc2ccccc2c1 (stereo unspecified)	15.8µM*
CN(C(=O)c1ccc(-c2nn(C)c(=O)c3ccccc23)cc1)c1ccccc1	7.94µM*
Cc1ccccc1-c1nc(CSc2nc3c(c(=O)[nH]2)CCC3)c(C)o1	4.47µM*

Next part:
SMILES	HPGD inh
O=C(Nc1nnc(-c2ccccc2SCc2ccccc2F)s1)Nc1ccccc1F	-19.8%
CCOC(=O)C1(O)CSc2nc3sc(C(=O)O)c(C)c3c(=O)n21 (stereo unspecified)	-17.1%
COc1c(C(=O)N2CCCC2)ccc2ccccc12	12.6µM*
Cc1ccc(N2CCN(/N=C/c3cccs3)CC2)cc1	0.2%
CCc1cc(C(=O)OC)c(NC(=O)c2cc(Br)cs2)s1	-18.1%
CC(C)[C@H](NC(=O)c1ccccc1)C(=O)N1CCc2ccccc21	-2.1%
CC(O)CN(Cc1ccc(Cl)cc1)CC(C)O (stereo unspecified)	-6.1%
Cc1cc(C)c2ccc(NN)nc2c1O	-12.3%
O=C1c2cccc3cccc(c23)C(=O)N1CC1CCN(CC(O)COCc2ccc3c(c2)OCO3)CC1 (stereo unspecified)	-22.8%
COc1ccc(C2C(Oc3ccccc3C)C(=O)N2Cc2ccc(F)cc2)cc1OC (stereo unspecified)	-5.8%
Cc1c(C(=O)OCC(=O)NCc2ccc3c(c2)OCO3)cccc1[N+](=O)[O-]	-15.3%
CC(C)CCNC(=O)CC1Nc2c3ccccc3nc(=S)n2C1=O (stereo unspecified)	-8.7%
Cc1cccc(C)c1OCCCCCNCCO	-11.9%

Screening data from PubChem BioAssay.
